# Compound activity from PubChem.
# YopH inh – YopH tyrosine phosphatase inhibitors, primary screen, biochemical, fluorescence Ex485/Em525 | AID 898, 2007 | inhibition, %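 (about 10 µM by stock and volumes)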 | actives 0.16% (n = 140,000);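 active means inhibition of 50% or more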;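 further: controls were vehicle for no effect and minimum signal wells for full effect; inactives centre near -20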
# Mtb H37Rv – M. tuberculosis H37Rv growth inhibitors, H37Rv strain (AID 1626). M. tuberculosis H37Rv growth inhibition; higher % means a stronger effect. one-dose inhibition, % at 10 µM; IC50 in µM for titrated hits. actives 0.95% (n = 220,000);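 active means confirmed in a dose series; inconclusive means inhibition above 80% but not taken into the dose series; inactive means below 80% or under 30% at every dose of the series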;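 further: bacteria incubated seven days before Alamar blue readout; 0% = bacteria only wells and 100% = bacteria with antibiotic wells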
# Arbovirus anti – antivirals against arbovirus infection, primary screen, cell-based, full library, 10K replicate subset. arbovirus infection cell-based antiviral screen. inhibition, % at 10 µM. actives 0.37% (n = 200,000). AID 1251, 2008;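 active means inhibition from about 30%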;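 further: bluetongue infection of BSR cells; cell survival read as ATP light after 72 h; 0% = infected wells without compound and 100% = uninfected wells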
# RecA splice inh – Mtb RecA intein splicing inhibitors, primary screen, biochemical, fluorescence, HTS. inhibition, %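 (about 9 µM by stock and volumes)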. Protein RecA (Mycobacterium tuberculosis (strain ATCC 25618 / H37Rv)), P9WHJ3. actives 0.75% (n = 290,000). cell-free RecA intein splicing. AID 2221, 2009; in the data active means inhibition above about 30%; inconclusive means no clear call, values can overlap the other calls;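 further: 0% = vehicle wells and 100% = reference inhibitor control wells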
# Target sequence (P9WHJ3 whole entry, looked up, canonical isoform): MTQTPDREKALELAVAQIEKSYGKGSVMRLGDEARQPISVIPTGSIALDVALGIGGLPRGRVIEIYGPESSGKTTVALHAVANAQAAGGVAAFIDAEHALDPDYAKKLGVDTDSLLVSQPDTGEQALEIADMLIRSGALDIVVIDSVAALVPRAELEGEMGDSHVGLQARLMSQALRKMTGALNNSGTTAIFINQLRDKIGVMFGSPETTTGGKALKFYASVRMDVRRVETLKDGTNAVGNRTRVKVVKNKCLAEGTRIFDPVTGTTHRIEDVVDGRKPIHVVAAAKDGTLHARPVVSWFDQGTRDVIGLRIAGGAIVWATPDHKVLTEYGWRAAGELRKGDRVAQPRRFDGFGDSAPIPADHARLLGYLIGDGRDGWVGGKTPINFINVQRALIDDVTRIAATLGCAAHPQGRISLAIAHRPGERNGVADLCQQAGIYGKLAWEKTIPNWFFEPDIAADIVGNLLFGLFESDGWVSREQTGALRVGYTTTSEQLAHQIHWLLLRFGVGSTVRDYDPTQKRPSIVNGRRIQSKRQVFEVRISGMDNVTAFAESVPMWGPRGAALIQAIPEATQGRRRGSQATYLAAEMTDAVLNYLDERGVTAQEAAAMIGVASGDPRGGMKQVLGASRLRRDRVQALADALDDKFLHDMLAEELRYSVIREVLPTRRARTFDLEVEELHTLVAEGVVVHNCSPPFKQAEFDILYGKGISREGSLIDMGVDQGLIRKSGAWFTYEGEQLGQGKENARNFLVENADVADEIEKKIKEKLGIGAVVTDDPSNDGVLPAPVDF
# Mtb bLac sens – beta-lactam sensitization of Mtb H37Rv, H37Rv | M. tuberculosis H37Rv growth with meropenem, percent inhibition; hits of this screen are not shown here | inhibition, % at 25 µM | actives 0.27% (n = 330,000) | AID 434955, 2010;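 active means about 74% or more and at least 40 points above the plate without the antibiotic, then above 30% in a dose series; inconclusive means first-round hits that could not be retested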;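 further: growth measured after seven days incubation then overnight dye step; 0% = bacteria only wells and 100% = bacteria with antibiotic; twin plates without the antibiotic show which effects depend on it; some results filed as inactive read as strong as hits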
# Arbovirus anti repeat – second read-out of Arbovirus anti, no call of its own (marks repeat the call); inhibition, %; measured here: 10K subset replicate screen; many hits read low in the repeat;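 first of two repeat runs on a subset; 0% = infected and 100% = uninfected wells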
# * = called active by the depositor; ? = inconclusive; nt = no result given. Only part of the results is shown, so the mix of outcomes need not match the whole.
SMILES,YopH inh,Mtb H37Rv,Arbovirus anti,RecA splice inh,Mtb bLac sens,others
COc1ccc2cc(C(c3nnnn3Cc3ccccc3)N3CCCCCC3)c(=O)[nH]c2c1 (configuration not stated),13,-1%,nt,1.7,-2,
Cc1ccn2cc(-c3nonc3C)cc2c1,-42,-2%,-2,0.2,3,
CN1CCN(/N=C/c2c3ccccc3c(Cl)c3ccccc23)CC1,nt,?,-27,2.7,99,
O=C(NC1CC1)C1CSC(c2cccnc2)=N1 (configuration not stated),-20,-5%,-1,6.9,2,
Cc1cc(NS(=O)(=O)c2ccc(NC(=O)c3cnc4scc(C)n4c3=O)cc2)nc(C)n1,-20,-5%,10,-0.9,-6,Arbovirus anti repeat=2
O=C(C1CCC(=O)N1C1CCCC1)N1CCC2(CC1)OCCO2 (configuration not stated),-18,-3%,-6,-0.1,1,
Oc1ccc2[nH]cnc2c1CN1CCCCC1,-15,-1%,3,-1.3,-4,
CCCCCCOC(=O)c1ccccc1NC(=O)/C=C/C(=O)O,-27,1%,6,67*,2,
Cc1ccc(C(=O)NCCCNC(=O)COc2ccc(Cl)c(C)c2)cn1,nt,nt,nt,0.2,-11,
COc1ccc(C(=O)N(C)c2c(C)n(C)n(-c3ccccc3)c2=O)cc1OC,nt,2%,11,-1.5,7,

# Quoted at random: 2 compounds from above.
SMILES,YopH inh,Mtb H37Rv,Arbovirus anti,RecA splice inh,Mtb bLac sens,others
COc1ccc2cc(C(c3nnnn3Cc3ccccc3)N3CCCCCC3)c(=O)[nH]c2c1 (configuration not stated),13,-1%,nt,1.7,-2,
CN1CCN(/N=C/c2c3ccccc3c(Cl)c3ccccc23)CC1,nt,?,-27,2.7,99,

# Remaining list, next part
SMILES,YopH inh,Mtb H37Rv,Arbovirus anti,RecA splice inh,Mtb bLac sens,others
COc1ccccc1S(=O)(=O)c1c(C)cc(C)[nH]c1=O,nt,nt,nt,-0.8,1,
NC(=S)Nc1ccc2c(c1)OCO2,nt,-3%,7,-0.9,-10,
O=C(COc1ccc2ccccc2c1)NNC(=O)C(=O)Nc1ccccc1,nt,nt,nt,0.9,88,
Cc1ccc(S(=O)(=O)/N=C(/c2ccccc2)N(C)C)c(C)c1,nt,nt,nt,-1.8,-2,
Clc1ccc(Oc2nc(N3CCOCC3)nc(N3CCOCC3)n2)cc1,-10,-8%,1,nt,-3,
COc1ccc(CSc2ncn[nH]2)cc1[N+](=O)[O-],-27,3%,2,0.7,10,
COc1ccccc1N1CCN(c2ccc(Cl)nn2)CC1,nt,1%,-7,-2.0,-8,
CN(C)C(=O)c1c(NC(=O)c2ccco2)sc2c1CCCCC2,-56,-11%,1,-3.9,-8,
CCOc1ccc(S(=O)(=O)N2CCCC(C(=O)NCc3ccccn3)C2)cc1 (configuration not stated),nt,nt,nt,0.2,-3,
Cc1ccc(NS(=O)(=O)c2ccc(OCC(=O)Nc3cccc([N+](=O)[O-])c3)c(C)c2)cc1,-30,5%,-23,1.7,-1,
CC(CNC(=O)c1ccc(NC2=NC3CS(=O)(=O)CC3S2)cc1)c1ccccc1 (configuration not stated),nt,nt,nt,-1.8,-2,
Cc1nc2nc[nH]c2cc1Br,-13,-4%,11,-2.4,7,Arbovirus anti repeat=-1
COc1ccc(Cl)cc1S(=O)(=O)N1CCC(C(=O)NC2CCCC2)CC1,nt,nt,nt,-5.8,-5,
Cc1ccccc1OCC(=O)N/N=C/c1ccc([N+](=O)[O-])o1,-10,?,2,0.2,100,
O=C1CCC([N+](=O)[O-])C(c2ccc3c(c2)OCO3)N1 (configuration not stated),nt,0%,-2,-5.5,0,
Cc1cc(Br)ccc1OCC(=O)NNC(=O)C(=O)Nc1ccccc1,nt,?,5,7.1,97,
CCO[C@H]1OC(C(=O)Nc2ccccc2)=C[C@@H](c2ccc(C(F)(F)F)cc2)[C@@H]1CCCO,nt,3%,-15,-0.5,28,
CN(C(=O)COC(=O)C(C)(C)Oc1ccc(Cl)cc1)c1c(N)n(Cc2ccccc2)c(=O)[nH]c1=O,nt,nt,nt,2.1,-8,
NC(=O)C1CCN(c2oc(/C=C/c3ccccc3)nc2S(=O)(=O)c2ccccc2)CC1,nt,nt,nt,1.9,7,
CCCn1c(=O)c2ccccc2n2c(=S)[nH]nc12,nt,nt,nt,14,6,

# Sorted by molecular weight (descending): some entries from above.
SMILES,YopH inh,Mtb H37Rv,Arbovirus anti,RecA splice inh,Mtb bLac sens,others
CN(C(=O)COC(=O)C(C)(C)Oc1ccc(Cl)cc1)c1c(N)n(Cc2ccccc2)c(=O)[nH]c1=O,nt,nt,nt,2.1,-8,
CC(CNC(=O)c1ccc(NC2=NC3CS(=O)(=O)CC3S2)cc1)c1ccccc1 (configuration not stated),nt,nt,nt,-1.8,-2,
Cc1nc2nc[nH]c2cc1Br,-13,-4%,11,-2.4,7,Arbovirus anti repeat=-1

# The list continues:
SMILES,YopH inh,Mtb H37Rv,Arbovirus anti,RecA splice inh,Mtb bLac sens,others
O=C(O)CC1C(=O)NCCN1CCCc1ccccc1 (configuration not stated),-22,-1%,3,1.8,-3,Arbovirus anti repeat=3
COc1ccccc1-n1c(SCC(=O)NC(C)(C)C)nnc1-c1ccco1,-18,-3%,8,2.3,-1,
Cc1ccc2cc(C(c3nnnn3C3CCCC3)N3CCN(c4ccc(F)cc4)CC3)c(=O)[nH]c2c1 (configuration not stated),-10,6%,-4,0.7,82,
CCOc1ccccc1/C=N/NC(=O)CNC(=O)c1cccs1,nt,5%,-3,0.7,0,
Cc1cc(C)cc(NC(=O)COc2coc(CN3CCc4ccccc43)cc2=O)c1,nt,nt,nt,-0.5,-6,
COc1ccc(N(C(=O)c2ccncc2)S(=O)(=O)c2ccc(Cl)cc2)cc1,nt,nt,nt,21,6,
COc1ccc(N(CC(=O)NC(C)(C)C)C(=O)CCC(=O)Nc2nccs2)c(OC)c1,nt,nt,nt,-2.5,-1,
CC(=O)N1CCN(Cc2nc3scc(-c4ccccc4)c3c(=O)[nH]2)CC1,nt,-4%,7,2.8,2,
CCC(Cc1ccccc1)NC(=O)C1CCN(c2nn3c(=O)cc(C)nc3s2)CC1 (configuration not stated),nt,nt,nt,-0.2,4,
COCCC(=O)N1CCC(Oc2ccc(C(=O)NCCSC)cc2)CC1,nt,nt,nt,-5.4,-7,

# For reference, 6 of the compounds above:
SMILES,YopH inh,Mtb H37Rv,Arbovirus anti,RecA splice inh,Mtb bLac sens,others
O=C(O)CC1C(=O)NCCN1CCCc1ccccc1 (configuration not stated),-22,-1%,3,1.8,-3,Arbovirus anti repeat=3
COc1ccccc1-n1c(SCC(=O)NC(C)(C)C)nnc1-c1ccco1,-18,-3%,8,2.3,-1,
Cc1ccc2cc(C(c3nnnn3C3CCCC3)N3CCN(c4ccc(F)cc4)CC3)c(=O)[nH]c2c1 (configuration not stated),-10,6%,-4,0.7,82,
CCOc1ccccc1/C=N/NC(=O)CNC(=O)c1cccs1,nt,5%,-3,0.7,0,
Cc1cc(C)cc(NC(=O)COc2coc(CN3CCc4ccccc43)cc2=O)c1,nt,nt,nt,-0.5,-6,
COc1ccc(N(C(=O)c2ccncc2)S(=O)(=O)c2ccc(Cl)cc2)cc1,nt,nt,nt,21,6,

# (continued)
SMILES,YopH inh,Mtb H37Rv,Arbovirus anti,RecA splice inh,Mtb bLac sens,others
Cc1nn(CC(=O)NCCCN2CCCCC2C)c(=O)c2cccn12 (configuration not stated),nt,nt,nt,-0.7,-7,
O=C(O)c1cc([N+](=O)[O-])ccc1Nc1ccccc1,-16,1%,7,4.9,-3,
CC12CC(NC(=O)N1c1cccc(C(=O)N3CCCCC3)c1)c1ccccc1O2 (configuration not stated),nt,nt,nt,-5.5,-2,
C#Cc1ccc2c(c1)COc1c3ccccc3nn1-2,nt,-12%,nt,-3.2,51,
CCN(c1cccc(C)c1)S(=O)(=O)c1cccc(C(=O)O)c1,-33,2%,5,0.3,?,
CC1CCCCC1NC(=O)COC(=O)c1ccc2c(c1Cl)C(=O)c1ccccc1C2=O (configuration not stated),-9,44%,-12,22,1,
CC(NC(=O)c1ccccc1F)c1nnc(SCC(=O)N2CCN(c3ccccc3)CC2)n1C (configuration not stated),nt,5%,4,-1.3,0,
COc1ccc(NC(=O)COc2ccc3c(C)cc(=O)oc3c2)cc1S(=O)(=O)N1CCCCC1,nt,nt,nt,2.1,-1,
CCCCNCCOCCOc1ccccc1-c1ccccc1,-20,-7%,-14,3.9,0,
C=CCNC(=S)NNC(=O)c1ccc(=O)n(Cc2ccc(Cl)cc2Cl)c1,nt,3%,7,3.5,-5,
O=C(Nc1ccccc1)Nc1nc(-c2ccc(Cl)cc2)cs1,-16,3%,-6,-3.7,11,
O=C(N/C(=C/C=C/c1ccccc1)C(=O)N1CCCCC1)c1ccc([N+](=O)[O-])cc1,nt,7%,16,nt,90,
COc1ccc(-n2c(=O)c3c4c(sc3n(CC(=O)NC3CCCC3)c2=O)CCCC4)c(OC)c1,nt,3%,7,1.5,-2,
COc1ccc(OC)c(NC(=S)N(CCc2c(C)[nH]c3ccc(C)cc23)Cc2cccs2)c1,-3,nt,-3,1.6,-10,
O=C(c1cccc(S(=O)(=O)N2CCN(c3ccccc3)CC2)c1)N1CCCC(C(F)(F)F)C1 (configuration not stated),nt,nt,nt,-1.7,-6,
CC1=CC=CN2C1=NC(=O)CC2(C)C(=O)N(CC(=O)NC1CCCC1)c1cc(C)cc(C)c1 (configuration not stated),nt,1%,6,3.1,-1,
Cc1nn(C)c(C)c1NC(=O)CCSc1nc(-c2ccco2)cc(C(F)(F)F)n1,4,-7%,6,-3.6,-15,
COc1ccc(/C=N/NC(N)=S)cc1OC(=O)c1cccc2ccccc12,-24,36%,-25,11,?,
CS(=O)(=O)N(CC(=O)NCCSC1CCCCC1)c1cccc(F)c1,-19,0%,-1,-3.4,-7,
CCc1ccc(OCC(=O)NC(NC(=S)Nc2ccccc2C)C(Cl)(Cl)Cl)cc1 (configuration not stated),-23,9%,-33,-1.1,6,
CCCC(C(=O)NC1CCCC1)N(C(=O)Cn1nnc(-c2ccc(C)o2)n1)C1CCCC1 (configuration not stated),-35,-15%,8,1.8,-2,
C=CCNc1nnc(-c2ccncc2)s1,5,-5%,5,-1.0,-11,
CCN(CC)CCn1c2c(c(SCC(=O)Nc3ccccc3Cl)nc1=O)CCC2,nt,nt,nt,-0.6,-18,
CC(=O)Nc1ccc(SCC(=O)N(CCC#N)c2cc(C)cc(C)c2)cc1,-14,-4%,49*,nt,?,
CCCc1cc(=O)[nH]c(SCC(=O)CSc2nc(CCC)cc(=O)[nH]2)n1,-24,-6%,19,-1.3,-4,
COc1ccccc1-n1c(CNC(=O)c2cccs2)n[nH]c1=S,nt,0%,-6,-1.0,-5,
O=C(O)c1ccc2c(c1)C(=O)N(CCCCCCCN1C(=O)c3ccc(C(=O)O)cc3C1=O)C2=O,nt,nt,nt,1.2,-7,
CCN1CCN(c2ccc(N3CCN(C(=O)c4ccc(Br)o4)CC3)nn2)CC1,nt,nt,nt,-2.8,-10,
COc1ccc(C)cc1NC(=O)CN1CCN(S(=O)(=O)c2ccc(Cl)cc2)CC1,-2,8%,8,2.9,6,
CCC1(c2ccc(Cl)cc2)NC(=S)N(c2ccc(C)c(C)c2)N1 (configuration not stated),nt,2%,nt,-1.8,-4,
CCCCn1c(SCC(=O)Nc2nnc(CC)s2)nc2c1c(=O)n(C)c(=O)n2C,-7,-2%,2,-4.1,-3,
CSc1sc(C)cc1C1C(C#N)=C(N)N(c2cccnc2)C2=C1C(=O)CC(C)(C)C2 (configuration not stated),-29,-6%,10,-1.1,0,
CC(=O)N1c2ccc(Cl)cc2C2C=CCC2C1c1cccc2ccccc12 (configuration not stated),-31,8%,-18,nt,21,
